NOMO-1 viab: STK33 inhibitor candidate reducing NOMO-1 cell viability; inhibition, % (no concentration beside the values); 37,000 tested, 7.5% active; NOMO-1 AML viability, CellTiter-Glo luminescence, 72 h;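 active means most replicates above 80%; inconclusive means exactly half above 80%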;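 further: wells of about 30 µL received 25 nL stock; 0% = median of vehicle wells and 100% = reference inhibitor level; the first replicate is given; inactives centre near 10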
The depositor's hits bear a star; ? = inconclusive. Not all compounds are listed, so the mix of outcomes need not match the whole.

SMILES | NOMO-1 viab
C=C1CCC2(C(=O)OC3OC(CO)C(O)C(O)C3OC3OCC(O)C(O)C3O)CCC3(C)C(=CCC4C5(C)CCC(OC6OC(CO)C(O)C(O)C6O)C(C)(CO)C5CCC43C)C2C1 (stereo unspecified) | -0.3
CC(=O)N1c2ccccc2C(=O)C1NC(N)=S (stereo unspecified) | 23.0
c1ccc2c(c1)OCC(c1nn3c(Cn4cnc5ccccc54)nnc3s1)O2 (stereo unspecified) | 41.8
CC(C)(C)C(=O)CSc1nnc(-c2ccco2)n1Cc1ccco1 | 37.0
Cc1ccc(S(=O)(=O)N(C)C[C@H]2Oc3c(cccc3N(C)C)C(=O)N([C@@H](C)CO)C[C@H]2C)cc1 | -2.6
Cc1cc(C)c(S(=O)(=O)N(C)CC(=O)Nc2cccc(C)c2C)c(C)c1 | 27.9
C[C@H]1CN([C@@H](C)CO)C(=O)c2cc(NS(=O)(=O)c3ccc(Cl)cc3)ccc2O[C@@H]1CN(C)Cc1ccc(C(F)(F)F)cc1 | 110.7*
CC#CCc1cc2ccccc2c(=O)o1 | 21.2
CC(C)Cc1ccc(/C=C/C(=O)N2CCCC2)cc1 | 47.7
CCc1cc(C)cc(OCCn2cc(C=C3C(=O)NC(=O)NC3=O)c3ccccc32)c1 | 121.5*
Cc1noc(C)c1S(=O)(=O)N(C)C[C@@H]1Oc2c(NS(=O)(=O)c3cn(C)cn3)cccc2C(=O)N([C@H](C)CO)C[C@@H]1C | 4.3
C[C@@H]1CCCCO[C@@H](CN(C)S(=O)(=O)c2ccc(Cl)cc2)[C@@H](C)CN([C@H](C)CO)C(=O)c2cc(NC(=O)c3ccccc3)ccc2O1 | 87.6*
COc1ccc(NC(=O)CSc2nc(-c3ccc(Cl)cc3)cc(C(F)(F)F)n2)c([N+](=O)[O-])c1 | 69.6
Cc1cc(C(=O)Nc2cccc3c2O[C@H](CN(C)C)[C@H](C)CN([C@@H](C)CO)C3=O)n(C)n1 | -0.2
CS(=O)(=O)N(CC(=O)Nc1ccc(F)c(Cl)c1)Cc1ccccc1 | 17.6
CSc1ccccc1NC(=O)C(C)n1nc(C)c([N+](=O)[O-])c1C (stereo unspecified) | 24.5
CC1(C)CC(=O)c2c(O)cc(OCC(=O)c3ccc(Cl)c(Cl)c3)cc2O1 | 14.7
C[C@@H]1CN([C@H](C)CO)C(=O)c2cccc(NS(=O)(=O)c3ccc(Cl)cc3)c2O[C@@H]1CN(C)Cc1ccncc1 | -10.9
Cc1noc(C)c1NC(=O)N(C)C[C@@H]1Oc2ccc(NC(=O)c3ccncc3)cc2CC(=O)N([C@H](C)CO)C[C@@H]1C | -2.0
C[C@H]1CN([C@@H](C)CO)C(=O)Cc2cc(NC(=O)CCN3CCOCC3)ccc2O[C@@H]1CN(C)C(=O)Nc1ccccc1 | 3.6
CN(C1CCCCC1)S(=O)(=O)c1cc(Cl)ccc1Cl | 5.6
C[C@H](CO)N1C[C@H](C)[C@H](CN(C)Cc2ccc(Cl)c(Cl)c2)Oc2c(NC(=O)C3CCCCC3)cccc2C1=O | 92.2*
Cc1noc(C)c1S(=O)(=O)Nc1ccc2c(c1)C(=O)N([C@@H](C)CO)C[C@@H](C)[C@@H](CN(C)CC1CC1)O2 | 25.3
Cc1noc(C)c1S(=O)(=O)N(C)C[C@H]1Oc2ccc(NS(=O)(=O)c3ccc(Cl)cc3)cc2C(=O)N([C@H](C)CO)C[C@H]1C | 14.0
C[C@H]1CN([C@@H](C)CO)C(=O)Cc2cc(NS(C)(=O)=O)ccc2O[C@@H]1CN(C)Cc1ccc2c(c1)OCO2 | 1.9
COc1ccc(OC)c(NS(=O)(=O)c2cc(OC)ccc2OC)c1 | 15.6
C=CC1(C)OCO/C1=C\C[N+](C)(C)C (stereo unspecified) | -3.6
C[C@@H]1CN([C@H](C)CO)C(=O)c2cc(NS(=O)(=O)c3cccs3)ccc2O[C@@H]1CN(C)Cc1ccc(C(=O)Nc2ccccc2N)cc1 | 110.1*
COc1ccc(S(=O)(=O)N2CCCC(C(=O)Nc3ccc4c(c3)OCCO4)C2)cc1Cl (stereo unspecified) | 28.0
C[C@@H]1CN([C@H](C)CO)C(=O)c2cccc(NC(=O)c3cnccn3)c2O[C@H]1CN(C)Cc1ccc(-c2ccccc2)cc1 | 26.1
C[C@@H]1CN([C@H](C)CO)C(=O)c2cc(NC(=O)CCC(F)(F)F)ccc2O[C@H]1CN(C)CC1CCCCC1 | 26.2
COc1ccc(NC(=O)N(C)C[C@@H]2Oc3ccc(NS(=O)(=O)c4cn(C)cn4)cc3CC(=O)N([C@H](C)CO)C[C@H]2C)cc1 | 7.1
C[C@@H]1CN([C@@H](C)CO)C(=O)c2cc(NC(=O)Nc3ccc(F)cc3)ccc2O[C@@H]1CN(C)Cc1ccc(C(=O)Nc2ccccc2N)cc1 | ?
C[C@@H]1CN([C@H](C)CO)C(=O)c2cc(NS(=O)(=O)c3ccccc3)ccc2O[C@@H]1CN(C)C(=O)Nc1ccc(F)cc1 | 3.6
O=C1OC(COc2ccc(Br)cc2)CN1c1ccccc1 (stereo unspecified) | 24.6
C[C@H](CO)N1C[C@H](C)[C@H](CN(C)Cc2ccc(C(=O)Nc3ccccc3N)cc2)Oc2ccc(NC(=O)CCN3CCOCC3)cc2C1=O | 41.4
CNC[C@@H]1Oc2c(NC(=O)Nc3ccc(C(F)(F)F)cc3)cccc2C(=O)N([C@@H](C)CO)C[C@H]1C | 9.2
Cc1cc(C(=O)Nc2cccc3c2O[C@H](CN(C)CC2CCCCC2)[C@@H](C)CN([C@@H](C)CO)C3=O)n(C)n1 | 21.1
COc1ccc(CCNC(=S)Nc2c(C)n(C)n(-c3ccccc3)c2=O)cc1OC | -14.7
C[C@@H]1CN([C@H](C)CO)C(=O)c2cc(NS(=O)(=O)c3cn(C)cn3)ccc2O[C@@H]1CN(C)C(=O)Nc1ccc(F)cc1 | -16.7
C[C@@H]1CN([C@@H](C)CO)C(=O)Cc2cc(NS(=O)(=O)c3ccc(Cl)cc3)ccc2O[C@@H]1CN(C)S(=O)(=O)c1ccc(F)cc1 | 15.9
CN1CCN(CCCn2nnc3c(=O)oc4ccccc4c32)CC1 | 1.9
Cc1cccc(OCC(=O)Nc2ccc3oc(-c4cncc(Br)c4)nc3c2)c1C | 31.8
O=C(CC1(O)C(=O)N(Cc2ccc(Cl)cc2)c2ccccc21)c1cc2ccccc2oc1=O (stereo unspecified) | 120.4*
COc1ccc(S(=O)(=O)Nc2cccc3c2O[C@@H](CN(C)C(=O)Nc2ccccc2)[C@H](C)CN([C@H](C)CO)C3=O)cc1 | 19.6
COc1ccc(S(=O)(=O)Nc2cccc3c2O[C@@H](CN(C)CC2CC2)[C@@H](C)CN([C@H](C)CO)C3=O)cc1 | 24.2
Cc1cccc(NC(=O)c2ccccc2NC(=O)COc2ccc([N+](=O)[O-])cc2)c1C | 12.2
CCOC(=O)Cn1nc(C(F)(F)F)cc1C | 1.2
COc1ccc(NC(=O)Nc2cccc3c2O[C@H](CN(C)S(=O)(=O)c2ccc(F)cc2)[C@@H](C)CN([C@@H](C)CO)C3=O)cc1 | -2.7
COc1ccc(Cl)cc1N(CC(=O)Nc1ccc(I)cc1)S(C)(=O)=O | 28.7

The listing continues:
SMILES | NOMO-1 viab
Cc1ccc(S(=O)(=O)Nc2ccc3c(c2)C(=O)N([C@@H](C)CO)C[C@H](C)[C@@H](CN(C)C(=O)NC2CCCCC2)O3)cc1 | 13.7
O=C(O)CC(C(=O)Nc1cc(C(F)(F)F)cc(C(F)(F)F)c1)C1=CCCCC1 (stereo unspecified) | 16.5
Cc1ccc(S(=O)(=O)Nc2ccc3c(c2)CC(=O)N([C@@H](C)CO)C[C@@H](C)[C@@H](CN(C)Cc2ccc4c(c2)OCO4)O3)cc1 | 12.1
N#Cc1c(NC(=O)Cn2c(=O)oc3ccccc32)oc(-c2ccccc2)c1-c1ccccc1 | 13.0
C[C@@H]1CN([C@@H](C)CO)C(=O)c2cc(NC(=O)CCC(F)(F)F)ccc2O[C@H]1CN(C)C(=O)Nc1cccc2ccccc12 | -4.1
Cc1cc(C(=O)Nc2cccc3c2O[C@@H](CN(C)C(=O)Nc2ccc4c(c2)OCO4)[C@H](C)CN([C@H](C)CO)C3=O)n(C)n1 | 5.7
C[C@H](CO)N1C[C@H](C)[C@H](CN(C)C(=O)Nc2ccc(F)cc2)Oc2c(NC(=O)c3nc4ccccc4s3)cccc2C1=O | ?
C[C@H]1CN([C@@H](C)CO)C(=O)Cc2cc(NC(=O)Nc3ccc4c(c3)OCO4)ccc2O[C@H]1CN(C)C | 8.5
O=C(CSc1nccc(=O)[nH]1)Nc1cccc(F)c1 | 22.8
CC(=O)Nc1ccc(S(=O)(=O)n2cnc3ccccc32)cc1 | 44.0
COC(=O)c1c(-c2ccc(F)cc2)csc1NC(=O)CSc1ncnc2sc3c(c12)CCC3 | 51.5
Cc1ccccc1C(=O)Nc1ccc(OCC(=O)O)cc1 | 7.6
C[C@H](CO)N1C[C@H](C)[C@H](CN(C)CC2CCCCC2)Oc2ccc(NS(=O)(=O)c3ccc(F)cc3)cc2CC1=O | 104.0*
C[C@@H]1CN([C@@H](C)CO)C(=O)c2cc(NS(C)(=O)=O)ccc2O[C@H]1CN(C)Cc1ccc(C(=O)O)cc1 | 16.5
COc1ccccc1NC(=O)c1ccc(OC(C)C(=O)O)cc1 (stereo unspecified) | -26.7
CC(C)CNP(=O)(OC1CC(C)CCC1C(C)C)c1ccccc1 (stereo unspecified) | 31.2
COc1ccc(-c2cc(C(=O)N3CCCC3C(=O)O)c(C)o2)cc1OC (stereo unspecified) | 1.6
C[C@@H]1CN([C@H](C)CO)C(=O)c2cccc(NC(=O)Nc3ccc4c(c3)OCO4)c2O[C@H]1CN(C)CC1CCCCC1 | ?
CC(C)NC(=O)N(C)C[C@H]1Oc2c(NC(=O)NC3CCCCC3)cccc2C(=O)N([C@@H](C)CO)C[C@@H]1C | 17.4
COc1ccc(NC(=O)N(C)C[C@H]2Oc3ccc(NC(=O)Nc4cccc5ccccc45)cc3C(=O)N([C@@H](C)CO)C[C@@H]2C)cc1 | 18.3
C[C@H]1CN([C@@H](C)CO)C(=O)c2cccc(NC(=O)NC3CCCCC3)c2O[C@@H]1CN(C)Cc1ccncc1 | 17.8
CCOc1ccc2nc(S/C=C/C(=O)c3ccc(Cl)cc3)sc2c1 | 42.3
CC(=O)Nc1ccc(C(=O)CSc2nc3ccccc3n2C)cc1 | 1.0
COCCNC(=O)c1ccccc1-c1nc(-c2ccc(OC)c(OC)c2)no1 | -8.8
C[C@@H]1CN([C@H](C)CO)C(=O)Cc2cc(NC(=O)Cc3cn(C)c4ccccc34)ccc2O[C@H]1CN(C)CC1CCCCC1 | 43.5
CCOC(=O)c1c(NC(=O)COc2ccccc2C)sc2c1CCC2 | -20.5
COc1ccc(S(=O)(=O)Nc2ccc3c(c2)CC(=O)N([C@H](C)CO)C[C@@H](C)[C@@H](CN(C)C(=O)Nc2ccc(C(F)(F)F)cc2)O3)cc1 | 3.8
COc1ccc(NC(=O)N(C)C[C@@H]2Oc3ccc(NS(C)(=O)=O)cc3C(=O)N([C@H](C)CO)C[C@H]2C)cc1 | 15.3
O=C(CCSc1nc2ccccc2s1)N1CCOCC1 | 1.4
CC(C)(C)NC(=O)CSc1nnc(-c2ccccn2)n1-c1ccccc1 | 24.7

Part of the list above, with tabs:
structure	NOMO-1 viab
CCOc1ccc2nc(S/C=C/C(=O)c3ccc(Cl)cc3)sc2c1	42.3
CC(=O)Nc1ccc(C(=O)CSc2nc3ccccc3n2C)cc1	1.0
COCCNC(=O)c1ccccc1-c1nc(-c2ccc(OC)c(OC)c2)no1	-8.8
C[C@@H]1CN([C@H](C)CO)C(=O)Cc2cc(NC(=O)Cc3cn(C)c4ccccc34)ccc2O[C@H]1CN(C)CC1CCCCC1	43.5
CCOC(=O)c1c(NC(=O)COc2ccccc2C)sc2c1CCC2	-20.5
COc1ccc(S(=O)(=O)Nc2ccc3c(c2)CC(=O)N([C@H](C)CO)C[C@@H](C)[C@@H](CN(C)C(=O)Nc2ccc(C(F)(F)F)cc2)O3)cc1	3.8
COc1ccc(NC(=O)N(C)C[C@@H]2Oc3ccc(NS(C)(=O)=O)cc3C(=O)N([C@H](C)CO)C[C@H]2C)cc1	15.3

Additional structures:
SMILES | NOMO-1 viab
C[C@@H]1CN([C@H](C)CO)C(=O)Cc2cc(NC(=O)c3ccncc3)ccc2O[C@H]1CN(C)C | 2.1
C[C@@H]1CN([C@@H](C)CO)C(=O)c2cc(NC(=O)Nc3ccc(F)cc3)ccc2O[C@H]1CN(C)S(C)(=O)=O | -19.8
C[C@H](CO)N1C[C@H](C)[C@@H](CN(C)Cc2ccc(C(=O)O)cc2)Oc2c(NC(=O)C3CCCCC3)cccc2C1=O | 0.4
Cc1ccc(S(=O)(=O)N(C)C[C@@H]2Oc3ccc(NS(=O)(=O)c4cn(C)cn4)cc3C(=O)N([C@H](C)CO)C[C@@H]2C)cc1 | 9.5
COc1ccc(CNC(=O)C2CCCCC2C(=O)O)cc1 (stereo unspecified) | 17.8
C[C@@H]1CN([C@H](C)CO)C(=O)c2cc(NS(C)(=O)=O)ccc2O[C@@H]1CN(C)C(=O)Nc1ccc(C(F)(F)F)cc1 | 10.4
C[C@H]1CN([C@@H](C)CO)C(=O)Cc2cc(NS(=O)(=O)c3cn(C)cn3)ccc2O[C@@H]1CN(C)C(=O)NC1CCCCC1 | 13.3
C[C@@H]1CCCCO[C@@H](CN(C)C(=O)C2CCCCC2)[C@@H](C)CN([C@H](C)CO)C(=O)c2cc(NC(=O)Nc3ccc4c(c3)OCO4)ccc2O1 | 7.3
C[C@@H]1CN([C@H](C)CO)C(=O)Cc2cc(NC(=O)Nc3ccccc3)ccc2O[C@H]1CN(C)S(=O)(=O)c1ccccc1 | -16.3
C[C@H](CO)N1C[C@H](C)[C@H](CN(C)Cc2ccccc2)Oc2ccc(NC(=O)CCN3CCOCC3)cc2C1=O | 11.0
O=[N+]([O-])c1cccc(NC(=S)Nc2nn(Cc3ccc(Cl)cc3Cl)cc2Cl)c1 | 111.4*

Assay outcomes from PubChem.
